Compound activity: PubChem, several laboratories
MT1-MMP act inh = inhibitors of human MT1-MMP activation. AID 651647. P50281. 360,000 tested, 0.061% active. GFP/RFP ratio change, % at 20 µM. HT1080 RFP-PRO-GFP cells, GFP/RFP ratio fluorescence, overnight; percent of plate control window, DMSO zero;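 active means GFP/RFP ratio change of at least 30% with cell ATP level not reduced by more than half and red fluorescence within 50% of control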; further: strong numbers were not always called active
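Test system: HT1080 RFP-PRO-GFP cells; Benchmarks: DMSO and RFP-L50D-GFP cell wells; Timing: cells overnight before dosing, compound overnight, 37 °C, 5% CO2; Compound: one 20 µM compound dose with 1% DMSO; Read-out: GFP/RFP fluorescence ratio.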
HIV Env fusion = HIV envelope-mediated fusion inhibition; HeLa-JRFL Env/CEM21 cell fusion, luciferase; inhibition, % at 12.3 µM; 360,000 tested, 1.1% active;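 active means mean replicate inhibition score of at least 50 and every replicate individually at or above 50; inconclusive means only one of the two criteria met; inactive means mean below 50 and not all replicates reaching 50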;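 further: 0% = plate neutral controls and 100% = maraviroc near 300 nM; one replicate is shown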
eIF4H FP inh = inhibitors of RNA binding by human eIF4H; Q15056; eIF4H fluorescence polarization binding assay; inhibition, % at 35 µM; 290,000 tested, 0.94% active;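 active means 50% or more with normal probe brightness, or confirmed in later tests; inconclusive means above 50% with abnormal brightness, or retests that disagree; inactive means below 50% or failed in later tests; about a fifth of its hits are not listed in these tables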;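 further: calls also rest on retests at 20 µM and on dose response follow-up; 0% = protein and probe with vehicle and 100% = probe without protein; strong numbers were not always called active; many hits fall short of the cut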
CSC inhib = blocks cancer stem cells; inhibition, % at 7.5 µM; cancer stem cell-like cells viability, luminescence; AID 2717; 300,000 tested, 1.1% active;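 active means mean at 75% or more and at least half the replicates too; inconclusive means mean and replicates disagree; tested in HMLE shEcad cells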;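 further: 0% = median of negative and 100% = median of positive control wells; the first replicate is given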
PABP FP inh = blocks human PABP binding to poly(A) RNA; 290,000 tested, 1% active; fluorescence polarization; P11940; AID 2014; inhibition, % at 35 µM;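 active means 50% or more with normal probe brightness, or confirmed in later tests; inconclusive means above 50% with abnormal brightness, or retests that disagree; inactive means below 50% or failed in later tests; about a fifth of its hits are not listed in these tables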;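 further: calls also rest on retests at 20 µM and on dose response follow-up; controls were probe without protein and protein plus probe with vehicle; some compounds called inactive have numbers as strong as hits; many hits fall short of the cut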
Target sequence (P11940 whole entry, looked up): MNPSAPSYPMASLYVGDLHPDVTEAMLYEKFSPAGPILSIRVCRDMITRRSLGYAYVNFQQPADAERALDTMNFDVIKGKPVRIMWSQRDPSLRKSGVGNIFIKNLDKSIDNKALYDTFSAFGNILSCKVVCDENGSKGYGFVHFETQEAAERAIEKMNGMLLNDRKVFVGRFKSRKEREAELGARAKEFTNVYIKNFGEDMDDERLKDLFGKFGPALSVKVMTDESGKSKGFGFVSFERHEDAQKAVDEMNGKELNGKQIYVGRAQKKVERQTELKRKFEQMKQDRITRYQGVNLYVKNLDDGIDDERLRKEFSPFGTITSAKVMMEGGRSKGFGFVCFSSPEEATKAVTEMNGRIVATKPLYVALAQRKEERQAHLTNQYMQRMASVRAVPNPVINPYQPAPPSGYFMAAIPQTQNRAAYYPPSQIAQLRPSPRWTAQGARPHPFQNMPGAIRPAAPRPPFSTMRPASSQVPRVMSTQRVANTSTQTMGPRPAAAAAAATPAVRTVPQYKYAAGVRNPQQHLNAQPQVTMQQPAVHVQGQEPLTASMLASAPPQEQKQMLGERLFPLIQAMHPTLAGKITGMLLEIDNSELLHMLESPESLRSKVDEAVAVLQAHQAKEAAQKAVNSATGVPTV
UUG fidelity = alters start codon recognition fidelity in yeast; S. cerevisiae UUG-firefly luciferase reporter, luminescence/redox ratio; activity score, % at 18.7 µM; 350,000 tested, 0.13% active; AID 602363;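 active means replicate mean at a twofold rise or more, about +100% in these data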;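 further: firefly luciferase made from a UUG start codon reports start codon fidelity; reporter light over untreated wells divided by growth signal over untreated wells; some hits fall short of that in this replicate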
Rce1 inh = inhibitors of yeast Ras-converting enzyme; Q03530; yeast membranes, quenched prenylated peptide cleavage fluorescence; calls only; 290,000 tested, 0.27% active; AID 2563;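 active means fall in fluorescence gain of 50% or more versus controls, with final raw signal at or below 3038400; inconclusive means same 50% fall but final raw signal above 3038400; inactive means fall in fluorescence gain under 50%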;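 further: plate controls were neutral control wells for no effect and wells lacking membranes for full effect; tested at 10 µM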
Target sequence (Q03530 whole entry, looked up): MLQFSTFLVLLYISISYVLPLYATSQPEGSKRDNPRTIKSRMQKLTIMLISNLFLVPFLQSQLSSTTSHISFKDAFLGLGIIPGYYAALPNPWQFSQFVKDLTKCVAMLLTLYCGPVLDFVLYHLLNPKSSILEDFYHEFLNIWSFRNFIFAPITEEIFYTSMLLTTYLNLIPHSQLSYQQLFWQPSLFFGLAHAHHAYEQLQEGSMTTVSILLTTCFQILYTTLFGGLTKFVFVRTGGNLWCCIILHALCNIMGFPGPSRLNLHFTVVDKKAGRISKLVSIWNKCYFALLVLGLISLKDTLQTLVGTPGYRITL
eIF4H FP inh retest = second read-out of eIF4H FP inh, no call of its own (marks repeat the call); inhibition, %; compound at 20 µM; confirmation average;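 mean of two retest wells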
PABP FP inh retest = recorded beside PABP FP inh, whose call it bears; inhibition, %; compound at 20 µM; confirmation repeats;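 mean of two retest wells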
MT1-MMP act inh RFP = also measured in MT1-MMP act inh; calls as there; RFP signal change, %; measured here: RFP expression control read;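 0 = vehicle wells; hits needed this value within 50% of zero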
The depositor's hits bear a star; i = inactive; ? = inconclusive; · = no result given; + = active, no number. A portion of the library; count on the stated rates, not on these rows.

SMILES	MT1-MMP act inh	MT1-MMP act inh RFP	HIV Env fusion	eIF4H FP inh	CSC inhib	PABP FP inh	UUG fidelity	Rce1 inh	others
Cc1cccc(C)c1Nc1nnc(SCC(=O)c2ccc(Br)s2)s1	0	-2	-3	-12	-11	-2	·	i
CCN(CC)c1ccc(NC(=O)c2ccco2)cc1	8	3	-88	-5	-1	-2	-37	i
CCC1(C)Cc2c(sc3nc(NN)n(C)c(=O)c23)CO1 (centres undefined)	0	0	·	-5	13	-8	-30	i
COc1ccc(Nc2ncnc3c2cnn3-c2cccc(C)c2)cc1OC	0	2	-10	1	·	18	-27	i
C=CCc1ccccc1OCC(=O)OCCNC(=O)c1cccnc1	0	-3	-52	3	13	-6	-5	i
O=C(COC(=O)c1ccc[n+]([O-])c1)Nc1ccccc1OC(F)F	1	4	1	·	-9	·	-7	·
O=C(Nc1ccc(F)cc1)c1ccc(CSc2ccc(Cl)cc2)o1	2	3	-5	0	4	7	-13	·
CC1(C(=O)NS(=O)(=O)c2cccs2)CCN1C(=O)Cc1ccc(Cl)cc1Cl (centres undefined)	2	5	-4	·	·	·	-10	·
O=C(NCc1ccc(F)cc1)C1CCCN1S(=O)(=O)c1ccc(F)cc1 (centres undefined)	1	5	-103	·	·	·	-10	·
NC(=O)C1CCN(c2nc(C3CC3)nc3c2nnn3Cc2ccccc2Cl)CC1	0	-7	26	0	·	-7	-6	i
O=C(Nc1ccccc1)c1ccccc1Br	0	2	-24	·	·	·	-13	·
CCCn1c(SCC(=O)NCC2CCCO2)nc2c1c(=O)n(C)c(=O)n2C (centres undefined)	-3	6	-206	8	4	-2	0	i
CC(=O)N1c2ccc(S(=O)(=O)N3CCCC(C(=O)Nc4cc(C)cc(C)c4)C3)cc2CC1C (centres undefined)	-13	-16	44	-11	6	-3	3	i
Cc1ccccc1OCc1nnc(SCc2cc(=O)[nH]c3ccccc23)n1-c1ccccc1	-2	-12	·	-2	-16	-2	7	i
CC1CN(C(=O)c2scc3c2OCCO3)CC(C)O1 (centres undefined)	-3	-2	·	7	-12	1	-16	·
Cn1c(=O)c2c(ncn2CC(=O)OCC(=O)Nc2cccc(C#N)c2)n(C)c1=O	0	2	-11	·	·	·	-18	·
CCNC(=O)CC1C(=O)N(c2cccc(C)c2)C(=O)N1CCC(C)C (centres undefined)	1	6	11	2	13	9	0	i
Cc1csc(SCC(=O)NCc2ccccc2Cl)n1	3	2	3	-9	8	-13	·	i
Cc1c(C)n2c(SCC(=O)N3CCCCC3)nnc2[nH]c1=O	6	6	·	·	-9	·	·	i
C[C@H](NC(=O)c1nc[nH]c1C(=O)N[C@@H](C)C(=O)OC(C)(C)C)C(=O)OCc1ccccc1	0	1	4	0	-15	-7	-11	i
CCN1CCN(C(=S)c2ccc(OCC(=O)NCc3ccccc3)cc2)CC1	2	0	14	3	18	-5	·	i
COc1cc(NC(=O)c2cccnc2)c(Cl)cc1NC(=O)c1ccc(Cl)cc1	3	1	-7	-3	-10	0	-12	i
CC(C)NC(=S)N/N=C/c1ccc2c(c1)OCCO2	-2	2	-4	-3	6	-11	·	i
O=c1c(-c2cccc(Cl)c2)c[nH]n1-c1ccccc1	-2	-6	1	4	6	3	-2	i
O=C(NC(=S)N1CCN(CCO)CC1)C12CC3CC(CC(C3)C1)C2	2	2	5	1	-2	-3	-6	i
O=C1/C(=C\c2ccco2)SC(=S)N1Cc1ccccc1	10	21	·	76*	-19	38*	-10	i	eIF4H FP inh retest=77*;PABP FP inh retest=78*
O=C(Nc1cccc(C(=O)N2CCCCC2)c1)c1ccccc1	-1	6	9	·	·	·	10	·
CCN(CC)C(=O)c1cc2c(=O)n3cccc(C)c3nc2s1	2	3	20	-10	-3	5	0	i
O=C(N/N=C/c1ccccn1)c1cc(-c2cccc3ccccc23)n[nH]1	0	2	-26	5	26	-9	·	i
COc1ccc(N2CCN(C(=O)c3cccc(NC4=NC5CS(=O)(=O)CC5S4)c3)CC2)cc1 (centres undefined)	12	1	0	-4	-25	-1	-18	i
CCC(CC)c1nnc(NC(=O)CS(=O)(=O)c2ccc(C)cc2)s1	-1	1	-13	-1	1	8	-16	i
Cc1nc2sc(C(c3ccccc3)N3CCOCC3)c(O)n2n1 (centres undefined)	2	2	·	2	·	-2	-1	i
Cc1ccc(S(=O)(=O)N(C)C)cc1NC(=O)COC(=O)COc1ccc2c(C)cc(=O)oc2c1	0	0	-2	·	-19	·	-10	·
CCCOc1ccc(-c2c(=O)n(O)c3ccccc3[n+]2[O-])cc1	4	4	-42	14	6	10	-15	i
O=C(CSc1nnc2ccc(-c3ccccn3)nn12)Nc1ccccc1	1	-3	1	·	-15	·	-23	i
O=C(NCc1ccccn1)c1ccc(CNS(=O)(=O)c2cccc(C(F)(F)F)c2)cc1	-1	-1	-7	-4	0	8	·	i
O=C(NC1CCCCC1)C1CCCN1S(=O)(=O)c1ccc(F)cc1 (centres undefined)	-9	-2	-17	-7	-10	-4	-14	·
CC[n+]1c(/C=C/Nc2ccccc2)oc2ccc(OC)cc21	-17	5	3	?	-7	?	·	i
CCOC(=O)c1c(NC(=O)c2cccc(N3C(=O)CCC3=O)c2)sc(C)c1C	8	-4	-21	16	-1	-1	-6	+
CCOC(=O)N1CCC(NC(=O)c2cc(C(=O)Nc3ccc(S(=O)(=O)N4CCCCC4)cc3)ccc2CO)CC1	6	-8	11	-1	-1	-11	·	i
COc1ccc(OC)c(C=NN=Cc2cc(OC)ccc2OC)c1	-6	4	10	·	·	·	4	·
O=C1/C(=C/c2cccs2)SC(=S)N1c1cccc(O)c1	4	4	-11	-10	6	-10	·	i
Cn1c(=O)c2c(nc(N/N=C/c3ccc(OC(=O)c4ccco4)cc3)n2Cc2ccc(F)cc2)n(C)c1=O	11	-12	-23	0	21	-9	1	i
Cc1nc(N2CCN(Cc3ccccc3)CC2)c(C#N)c2c1COC(C)(C)C2	0	-2	·	23	-5	7	-4	i
O=[N+]([O-])c1cc2c(cc1Br)CCN2	4	2	2	1	-5	10	·	i
CC(C)OC(=O)c1cc(C(=O)c2cc(Br)ccc2O)coc1=N	-5	0	-1	-4	12	10	-4	i
CCCCn1c(N)c(N(CCOC)C(=O)c2c(C)noc2C)c(=O)[nH]c1=O	1	2	1	·	9	·	·	i
c1nc2ccc(Cc3ccc4nc[nH]c4c3)cc2[nH]1	-5	2	9	-9	-5	-16	-7	i
Cc1ccccc1NC(=O)NNC(=O)COc1ccc2ccccc2c1	-1	3	-20	5	0	3	-11	i
Cc1ccccc1C(=O)Nc1ccccc1C(=O)NCc1ccccc1	2	0	-48	3	-10	10	-4	i
Carrying on.
SMILES	MT1-MMP act inh	MT1-MMP act inh RFP	HIV Env fusion	eIF4H FP inh	CSC inhib	PABP FP inh	UUG fidelity	Rce1 inh	others
CCCOc1cc(C)c(S(=O)(=O)NCc2cccs2)cc1C	2	-8	3	·	-13	·	-4	·
COc1ccc(CCn2c(N3CCN(Cc4ccccc4)CC3)nc3c2c(=O)[nH]c(=O)n3C)cc1	-8	-4	·	-2	11	2	-14	i
Cc1ccccc1NC(=S)NCc1ccccc1	1	4	-23	-7	-14	2	·	i
COC(=O)c1ccc(NC(=O)C23CC4CC(C2)CC(n2cncn2)(C4)C3)cc1	4	3	-50	3	1	-3	-27	i
O=C(OCC(=O)N1CCN(c2ccccc2)CC1)c1ccncc1	-1	2	12	·	8	·	-14	·
O=C(c1ccc(N2C(=O)C3CC=C(Cl)CC3C2=O)cc1)N1CCCCC1 (centres undefined)	-4	2	·	0	9	2	9	i
Cc1ccc(S(=O)(=O)N2CCN(C(=O)c3cc4c(C)nn(-c5ccccc5)c4s3)CC2)cc1	-10	-15	30	-7	2	-3	-8	+
CCOc1ccccc1-c1nc(-c2ccncc2)no1	-4	1	-87	-3	-22	4	-21	i
Cc1nn(CC(=O)Nc2ccc(Cl)cn2)c(C)c1[N+](=O)[O-]	2	1	-144	-2	-1	-3	1	i
C/C(=N\Nc1nncc2ccccc12)c1ccc(O)cc1	5	-24	-204	-32	4	13	-17	·
Cc1cc(C)c2c(c1)/C(=N\N=c1\sc3ccccc3n1C)C(=O)N2	-6	-2	-30	1	14	-8	-9	i
COc1ccc(-c2nc(C#N)c(NCCc3ccccc3)o2)cc1	2	-3	·	-6	5	3	·	i
CN1/C(=C\C=N\NC(=O)c2ccc(O)cc2)C(C)(C)c2ccccc21	59*	36*	3	?	8	-12	-24	i
CCN(CC(=O)Nc1cc(Cl)ccc1C)C(=O)COc1cccc2c1OC(C)(C)C2	0	1	22	-1	1	-4	14	i
Cc1ccc(NC(=S)N(CCN2CCOCC2)Cc2cc3cc4c(cc3[nH]c2=O)OCO4)cc1	3	5	4	-4	-4	0	·	i
CS(=O)(=O)c1ccc(Cl)c(NC(=O)COC(=O)Cc2c[nH]c3ccccc23)c1	0	2	·	·	-6	·	-13	i
CC(C)C(=O)N1CCN(c2ccccc2NC(=S)NC(=O)c2cccs2)CC1	-11	-8	22	3	0	7	-29	i
O=C(O)c1cc(-c2ccc(/C=c3\sc4nc5ccc(Br)cc5n4c3=O)o2)ccc1Cl	·	·	·	55*	-20	54*	·	i
COc1ccc(C(=O)N/C(=C\c2cccs2)c2nc3ccccc3[nH]2)cc1OC	-3	3	-61	3	-4	6	·	i
CCN(CC)S(=O)(=O)c1ccc(Cl)c(C(=O)NCc2ccco2)c1	2	4	-14	-2	-9	18	·	i
CCCCOc1cccc(C(=O)Nc2ccc(S(=O)(=O)Nc3nnc(CC)s3)cc2)c1	5	0	3	-4	-10	7	-17	i
O=C(Nc1ccc(Cl)cc1)N1CCSCC1	4	2	·	-5	·	-3	-28	i
O=C(CN1C(=O)NC(Cc2ccccc2)C1=O)Nc1ccc(OC(F)(F)F)cc1 (centres undefined)	-4	4	21	·	·	·	-16	·
Cc1cc(/C=N/NC(=O)c2ccc(O)cc2)c(C)n1CC(C)C	-1	3	-2	4	-4	8	-8	i
Cc1ccc2nc(Cl)c(C3CC(c4ccco4)=NN3S(C)(=O)=O)cc2c1 (centres undefined)	-3	-3	-15	2	3	7	·	i
CN(Cc1ccccc1)C(=O)c1ccc(NC(=O)Cc2ccc(NC(=O)C3CCCN(S(=O)(=O)c4cccc([N+](=O)[O-])c4)C3)cc2)cc1 (centres undefined)	0	-18	11	·	·	·	-12	·
CC(c1nnc(SCC(=O)Nc2sccc2C#N)n1-c1ccc(Cl)cc1)N(C)C (centres undefined)	-6	-4	·	3	-5	18	-12	i
Cc1ccc(N2C(=O)C3C(C2=O)C2C=CC3C23CC3)cc1 (centres undefined)	2	5	-21	-3	-6	1	-10	i
COc1ccc(Cc2nnc(SCC(=O)Nc3c(C)cccc3C)[nH]c2=O)cc1	-3	-3	-2	·	-6	·	-19	i
Cc1cc(N)n2ncc(-c3ccccc3)c2n1	-3	-4	·	-4	0	-3	-2	i
Cc1cccc(C(=O)Nc2nnc(C3=COCCO3)o2)c1	4	9	6	-2	-16	-13	·	i
